Assay outcomes (PubChem)
YopH inh – YopH tyrosine phosphatase inhibitors, primary screen, biochemical, fluorescence Ex485/Em525 | YopH tyrosine phosphatase [Yersinia enterocolitica] | 0.16% of 140,000 active | inhibition, %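 (about 10 µM by stock and volumes)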 | AID 898, 2007;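 active = inhibition of 50% or more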;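 also: controls were vehicle for no effect and minimum signal wells for full effect; inactives centre near -20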
Arbovirus anti – antivirals against arbovirus infection, primary screen, cell-based, full library, 10K replicate subset | inhibition, % at 10 µM | 0.37% of 200,000 active | arbovirus infection cell-based antiviral screen;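 active = inhibition from about 30%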;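 also: bluetongue infection of BSR cells; cell survival read as ATP light after 72 h; 0% = infected wells without compound and 100% = uninfected wells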
Mtb H37Rv – M. tuberculosis H37Rv growth inhibitors, H37Rv strain (AID 1626). M. tuberculosis H37Rv growth inhibition; higher % means a stronger effect. inhibition, % at 10 µM; hits with a dose series show IC50 in µM. 0.95% of 220,000 active;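 active = confirmed in a dose series; inconclusive = inhibition above 80% but not taken into the dose series; inactive = below 80% or under 30% at every dose of the series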;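 also: bacteria incubated seven days before Alamar blue readout; 0% = bacteria only wells and 100% = bacteria with antibiotic wells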
Mtb bLac sens – beta-lactam sensitization of Mtb H37Rv, H37Rv | inhibition, % at 25 µM | 0.27% of 330,000 active | M. tuberculosis H37Rv growth with meropenem, percent inhibition; hits of this screen are not shown here;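 active = about 74% or more and at least 40 points above the plate without the antibiotic, then above 30% in a dose series; inconclusive = first-round hits that could not be retested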;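 also: growth measured after seven days incubation then overnight dye step; 0% = bacteria only wells and 100% = bacteria with antibiotic; twin plates without the antibiotic show which effects depend on it; some results filed as inactive read as strong as hits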
RecA intein inh – Mtb RecA intein splicing inhibitors, primary screen, biochemical, fluorescence, HTS; Protein RecA (Mycobacterium tuberculosis (strain ATCC 25618 / H37Rv)), P9WHJ3; inhibition, %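 (about 9 µM by stock and volumes)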; AID 2221, 2009; cell-free RecA intein splicing; 0.75% of 290,000 active; in the data active = inhibition above about 30%; inconclusive = no clear call, values can overlap the other calls;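 also: 0% = vehicle wells and 100% = reference inhibitor control wells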
Target sequence (P9WHJ3 whole entry, looked up): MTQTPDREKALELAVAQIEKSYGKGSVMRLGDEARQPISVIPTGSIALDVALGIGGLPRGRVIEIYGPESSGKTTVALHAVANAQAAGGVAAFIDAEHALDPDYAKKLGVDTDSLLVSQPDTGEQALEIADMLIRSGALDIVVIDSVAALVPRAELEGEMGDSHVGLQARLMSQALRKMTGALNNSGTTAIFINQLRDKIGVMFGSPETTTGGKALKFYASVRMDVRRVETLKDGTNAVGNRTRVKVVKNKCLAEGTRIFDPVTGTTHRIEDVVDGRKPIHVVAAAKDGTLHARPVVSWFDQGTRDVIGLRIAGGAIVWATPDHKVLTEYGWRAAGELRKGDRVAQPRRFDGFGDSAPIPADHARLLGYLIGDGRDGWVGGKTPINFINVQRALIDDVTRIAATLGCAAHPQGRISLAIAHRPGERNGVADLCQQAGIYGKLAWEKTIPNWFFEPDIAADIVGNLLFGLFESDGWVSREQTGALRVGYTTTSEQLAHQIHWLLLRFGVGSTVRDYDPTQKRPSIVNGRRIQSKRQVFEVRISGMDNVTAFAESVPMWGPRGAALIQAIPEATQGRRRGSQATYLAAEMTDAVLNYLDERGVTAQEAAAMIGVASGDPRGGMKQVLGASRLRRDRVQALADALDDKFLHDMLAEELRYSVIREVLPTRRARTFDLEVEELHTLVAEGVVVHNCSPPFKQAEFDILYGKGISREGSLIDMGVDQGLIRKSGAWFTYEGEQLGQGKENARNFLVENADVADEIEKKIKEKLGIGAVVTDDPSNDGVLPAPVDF
Arbovirus anti repeat – further read-out of Arbovirus anti, marked with its call; inhibition, %; measured here: 10K subset replicate screen; many hits read low in the repeat;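 first of two repeat runs on a subset; 0% = infected and 100% = uninfected wells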
Numbers without * were called inactive; u = inconclusive; x = not tested or not shown; & = joins results of further samples. Only part of the results is shown; rates above refer to the full screens.

SMILES | YopH inh | Arbovirus anti | Mtb H37Rv | Mtb bLac sens | RecA intein inh | others
COc1ccccc1C(=O)Nc1ccnn1C1CCN(CC2CC=CCC2)CC1 (centres undefined) | x | x | x | 5.7 | 1.5
CC(C)(C)c1ccccc1OCCOCCNCc1ccccc1 | -7.4 | -23.7 | 9.2% | -2.9 | 3.2
COC(=O)c1cc(C)sc1NC(=S)N1CCN(CCc2ccccc2)CC1 | x | -0.9 | 4.3% | -10.0 | -7.2
COC(=O)c1cn(NC(=O)c2ccncc2)c(=O)c2ccccc12 | -2.8 | -2.6 | 0.4% | 5.7 | -2.2 | Arbovirus anti repeat=4.6
COc1ccc(/C(O)=C/c2nc3ccc(C(=O)NCCc4cccc(C)c4)cc3[nH]c2=O)cc1OC | -76.4 | -23.8 | 0.1% | 25.6 | -16.7
Cc1cccc(C)c1NC(=O)C(c1cccc([N+](=O)[O-])c1)N(C)C(=O)c1ccccn1 (centres undefined) | -19.4 | 5.9 | -8.2% | -2.2 | -2.5
COc1ccc(C(=O)Nc2nc(C)c3cc4c(cc3n2)OCO4)cc1 | -6.2 | -8.7 | 6.1% | 7.1 | -1.4
CC(C)c1c(C(=O)N/N=C/c2cccnc2)nnn1-c1nonc1N | x | x | x | -4.9 | -2.7
COC(=O)/C(C#N)=C(/Nc1ccc(F)c(Cl)c1)C(F)(F)F | x | x | -0.4% | -1.3 | 2.2
Cc1sc(NC(=O)c2ccc3ncsc3c2)c(C(N)=O)c1C | x | x | x | -1.6 | -11.5
CCOc1ccc2cc(C3CC(c4ccco4)=NN3S(C)(=O)=O)c(=O)[nH]c2c1 (centres undefined) | x | x | 0.8% | -1.2 | -2.6
O=C(NC1CCCCC1)C1CCN(c2nnnn2-c2ccccc2)CC1 | -16.2 | 3.5 | -2.8% | -5.3 | -1.2
CCC(NC(=O)c1cc(COc2ccc(C)nc2)on1)c1ccc(C)cc1 (centres undefined) | x | x | x | 6.6 | 1.6
Cc1occc1C(=O)NNS(=O)(=O)c1ccc(Cl)cc1 | -37.1 | -0.2 | 0.7% | 3.6 | -1.4
C=CCn1c(=O)/c(=C/c2ccc(F)cc2)s/c1=C(\C#N)c1nnc2n1CCCCC2 | -31.7 | 6.7 | 13.9% | 0.2 | 0.7
COc1ccc(N2CCN(C(=O)c3ccc(F)cc3)CC2)c([N+](=O)[O-])c1 | x | 3.0 | 3.2% | -3.8 | 0.6
COc1cc(S(=O)(=O)N2CCCCC2)ccc1NC=O | -21.3 | -2.9 | x | 3.9 | 1.7
Clc1cccc(Nc2c3c(nc4ncnn24)CCC3)c1 | -35.4 | 3.2 | -5.8% | -3.2 | 1.3
O=C(c1csc2c1CCCC2)N1CCN(c2ccccc2)CC1 | -33.4 | -2.7 | 10.5% | 21.8 | 3.5
C#CCn1c(=NC(=O)c2ccc(Cl)s2)sc2cccc(OC)c21 | -39.4 | -28.8 | 6.0% | 5.6 | -0.9
CC(NC(=O)C1CCCN(S(=O)(=O)c2cnc[nH]2)C1)c1ccccc1 (centres undefined) | -45.9 | 2.5 | -5.1% | -5.4 | x | Arbovirus anti repeat=1.3
COc1ccc(-c2noc(N3CCC(C(=O)NC(C)c4ccccc4)CC3)n2)cc1 (centres undefined) | x | x | x | -0.2 | -3.5
COc1cccc(CNC(=O)COC(=O)C2CC3CCCC(C2)C3=O)c1 (centres undefined) | x | x | x | -0.8 | -5.4
O=C(c1ccccc1)N(c1ccccc1)C1C=CS(=O)(=O)C1 (centres undefined) | -42.0 | 1.9 | 1.3% | -6.0 | -0.9
COC(=O)c1ccccc1NC(=O)Nc1cc(C)cc(C)n1 | -10.1 | 2.8 | -7.6% | x | 2.9

Carrying on.
SMILES | YopH inh | Arbovirus anti | Mtb H37Rv | Mtb bLac sens | RecA intein inh | others
O=C(NC12CC3CC(CC(C3)C1)C2)c1cc([N+](=O)[O-])ccc1Cl | x | x | x | 4.2 | -3.1
O=C(/C=C/c1ccco1)Nc1ccccn1 | -24.0 | -12.7 | 4.5% | -5.0 | -3.3
COc1cc(OC)c(C(=O)Nc2ccc(S(=O)(=O)Nc3ncccn3)cc2)cc1OC | -6.5 | -2.2 | -5.8% | 23.7 | 0.2
COCCn1nnnc1C(c1cccs1)N1CCN(c2nc3ccccc3s2)CC1 (centres undefined) | -22.5 | -4.0 | 3.9% | -4.9 | 4.5
Cc1ccc(CNC(=O)/C=C/c2c(Cl)cccc2Cl)cc1 | -23.8 | -9.2 | 6.1% | -3.7 | -1.5
O=C(CCN1C(=O)/C(=C/c2ccc(F)cc2)SC1=S)Nc1cc([N+](=O)[O-])ccc1O | x | x | x | 1.4 | 21.5
O=C(c1cc(-c2ccc(Cl)cc2)n(-c2ccc(Cl)cc2Cl)n1)N1CCOCC1 | -17.7 | -37.9 | 12.1% | 82.7 | 2.3
Cc1ccc(/C=N/NC(=S)NC2CCS(=O)(=O)C2)cc1 (centres undefined) | -39.9 | 1.6 | -4.7% | 5.8 | -0.7
CCC(C)NC(=O)CN(c1ccc2c(c1)OCO2)S(=O)(=O)c1c(C)n[nH]c1C (centres undefined) | -2.6 | 10.8 | -9.0% | 5.8 | x | Arbovirus anti repeat=1.7
COc1ccc(N2CCN(Cc3cc(=O)c(OCC(=O)Nc4ccccc4)co3)CC2)cc1 | x | x | x | 3.6 | -2.3
O=C(CS(=O)(=O)c1ccccc1)Nc1nnc(-c2cccs2)o1 | x | x | x | 2.0 | -3.2
Cc1ccc(S(=O)(=O)Oc2ccc(C)cc2/C=N/N=C2\NC(=O)C(C)S2)cc1 (centres undefined) | 22.4 | 30.3* | 13.5% | -6.4 | -3.4
c1cnc2c(c1)ccc1cccnc12 | -30.1 | -22.6&-38.9 | 4.46µM* | 85.5&86.5 | 1.9&-3.3
COc1ccccc1-n1cnnc1SCC(=O)Nc1nc(C)c(Cl)cc1Cl | -4.2 | 12.2 | 7.1% | 2.5 | 0.2
CCCCNC(=O)N(O)C1N(/N=C/c2ccccc2O)C(=S)SC1(C)C (centres undefined) | x | x | x | 7.0 | -36.6
CCCCNC(=O)N1CCN(Cc2cccc(F)c2)CC1 | x | 9.2 | 0.6% | -6.4 | -3.0
CCCCS(=O)(=O)N1CCCC(C(=O)Oc2ccccc2OC)C1 (centres undefined) | x | x | x | 3.2 | 0.1
CCS(=O)(=O)N1CCN(S(=O)(=O)c2ccc(Cl)s2)CC1 | x | x | x | 2.6 | -0.6
CCC12CN3CCN(CC(C3)/C1=N\NC(=O)c1ccc(Cl)cc1)C2 | x | 1.4 | -1.4% | 0.2 | 11.0
COc1ccc(OC)c2sc(NC(=O)c3ccc(S(=O)(=O)N(C)C)cc3)nc12 | -26.0 | 11.6 | 3.9% | 3.7 | 0.8 | Arbovirus anti repeat=9.8
N=C(N)SCc1ccc(O)c([N+](=O)[O-])c1 | x | x | -7.0% | -7.7 | -0.9
CCn1c(NCc2cc(OC)ccc2OC)nc2ccccc21 | -26.6 | 2.0 | -3.1% | -8.0 | x
COc1ccc(Cl)cc1-n1c(C)cc(C(=O)OCC(=O)N2CC(=O)Nc3ccccc32)c1C | 4.1 | -5.8 | 13.5% | 70.3 | 19.5
CCN(CC)c1ccc(N2C(=O)/C(=C\c3cccs3)SC2=S)cc1 | 2.8 | 5.7 | -5.3% | 5.8 | 0.5
Cn1c(=O)cc(OCC(=O)Nc2ccccn2)c2ccccc21 | -8.1 | 5.4 | -4.7% | -7.1 | -0.2

17 consecutive entries already listed, for reference:
SMILES | YopH inh | Arbovirus anti | Mtb H37Rv | Mtb bLac sens | RecA intein inh | others
O=C(NC12CC3CC(CC(C3)C1)C2)c1cc([N+](=O)[O-])ccc1Cl | x | x | x | 4.2 | -3.1
O=C(/C=C/c1ccco1)Nc1ccccn1 | -24.0 | -12.7 | 4.5% | -5.0 | -3.3
COc1cc(OC)c(C(=O)Nc2ccc(S(=O)(=O)Nc3ncccn3)cc2)cc1OC | -6.5 | -2.2 | -5.8% | 23.7 | 0.2
COCCn1nnnc1C(c1cccs1)N1CCN(c2nc3ccccc3s2)CC1 (centres undefined) | -22.5 | -4.0 | 3.9% | -4.9 | 4.5
Cc1ccc(CNC(=O)/C=C/c2c(Cl)cccc2Cl)cc1 | -23.8 | -9.2 | 6.1% | -3.7 | -1.5
O=C(CCN1C(=O)/C(=C/c2ccc(F)cc2)SC1=S)Nc1cc([N+](=O)[O-])ccc1O | x | x | x | 1.4 | 21.5
O=C(c1cc(-c2ccc(Cl)cc2)n(-c2ccc(Cl)cc2Cl)n1)N1CCOCC1 | -17.7 | -37.9 | 12.1% | 82.7 | 2.3
Cc1ccc(/C=N/NC(=S)NC2CCS(=O)(=O)C2)cc1 (centres undefined) | -39.9 | 1.6 | -4.7% | 5.8 | -0.7
CCC(C)NC(=O)CN(c1ccc2c(c1)OCO2)S(=O)(=O)c1c(C)n[nH]c1C (centres undefined) | -2.6 | 10.8 | -9.0% | 5.8 | x | Arbovirus anti repeat=1.7
COc1ccc(N2CCN(Cc3cc(=O)c(OCC(=O)Nc4ccccc4)co3)CC2)cc1 | x | x | x | 3.6 | -2.3
O=C(CS(=O)(=O)c1ccccc1)Nc1nnc(-c2cccs2)o1 | x | x | x | 2.0 | -3.2
Cc1ccc(S(=O)(=O)Oc2ccc(C)cc2/C=N/N=C2\NC(=O)C(C)S2)cc1 (centres undefined) | 22.4 | 30.3* | 13.5% | -6.4 | -3.4
c1cnc2c(c1)ccc1cccnc12 | -30.1 | -22.6&-38.9 | 4.46µM* | 85.5&86.5 | 1.9&-3.3
COc1ccccc1-n1cnnc1SCC(=O)Nc1nc(C)c(Cl)cc1Cl | -4.2 | 12.2 | 7.1% | 2.5 | 0.2
CCCCNC(=O)N(O)C1N(/N=C/c2ccccc2O)C(=S)SC1(C)C (centres undefined) | x | x | x | 7.0 | -36.6
CCCCNC(=O)N1CCN(Cc2cccc(F)c2)CC1 | x | 9.2 | 0.6% | -6.4 | -3.0
CCCCS(=O)(=O)N1CCCC(C(=O)Oc2ccccc2OC)C1 (centres undefined) | x | x | x | 3.2 | 0.1

(cont.)
SMILES | YopH inh | Arbovirus anti | Mtb H37Rv | Mtb bLac sens | RecA intein inh | others
COc1ccc(CN2C(=NC(=O)C3CCCO3)SC3CS(=O)(=O)CC32)cc1 (centres undefined) | x | x | x | -5.7 | -4.1
CC1CCN(C(=O)CCc2nnc3ccc(NCCCN4CCCC4=O)nn23)CC1 | x | x | x | -3.6 | -1.3
Cc1ccc(-c2noc(CCCN3C(=O)c4ccccc4C3=O)n2)cc1 | -16.9 | 5.1 | -2.4% | 4.9 | 0.9
COc1cc2occc2c2oc(=O)ccc12 | -9.8 | -3.7 | -2.6% | 16.6 | -0.3
Cc1cccc(OCC(O)CN2C(C)(C)CC(O)CC2(C)C)c1 (centres undefined) | 1.7 | -2.1 | -2.2% | -2.2 | x
CCOC(=O)c1ccc2c(c1)nc(SCC(=O)N1CCCCC1)n2CC | -17.7 | -11.8 | 5.3% | -8.2 | 2.2
COc1ccc(NC(=S)Nc2ccccc2C(F)(F)F)cc1 | x | 4.1 | 1.9% | -10.9 | -2.1
O=S(=O)(Nc1nc2ccccc2nc1Nc1cccc(S(=O)(=O)N2CCCCC2)c1)c1ccccc1 | -37.0 | 5.5 | 2.5% | 9.8 | -13.7
Clc1cccc(OCc2nc(-c3ccncc3)no2)c1 | x | -8.6 | 11.1% | 1.6 | 0.8
Cc1ccc(CNC(=O)C2CCC(=O)N(CCc3ccccc3)C2)s1 (centres undefined) | x | x | x | 3.3 | 1.5
COc1ccc(/C=C/C(=O)OCC(=O)Nc2cc(C(N)=O)cc(C(N)=O)c2)cc1 | x | 4.1 | 4.5% | -4.7 | 0.8
CCCCOC(=O)c1ccc(NC(=O)C(=O)NCc2ccncc2)cc1 | -21.9 | 2.9 | u | 92.8 | -0.6
O=c1c2c(-c3ccc([N+](=O)[O-])cc3)ccnc2[nH]n1-c1ccccc1 | x | x | x | -1.5 | 9.3
O=C(NNC1CC(=O)N(c2ccc(Cl)cc2)C1=O)c1ccccc1Cl (centres undefined) | x | 6.1 | -6.5% | -5.5 | -4.8
N#Cc1cccc(CN2CCC(=O)N([C@H](CO)c3ccccc3)CC2)c1 | x | x | x | 2.2 | -1.6
CCN1CCN(CC(=O)Nc2sc3c(c2C#N)CCC3)CC1 | x | -10.1 | -3.6% | -7.9 | 1.5
Cc1cccc(CCNS(=O)(=O)c2ccc3c(c2)CCN3C(=O)CCC(=O)O)c1 | x | x | x | -8.8 | -1.9
COc1cc(/C=N/Nc2nc3ccccc3s2)cc([N+](=O)[O-])c1O | x | x | -1.0% | 22.4 | 0.2
